Vif A3G: HIV-1 Vif–A3G interaction blockers – biochemical, TR-FRET, GST-Vif 1-94, biotin-A3G peptide, dose response retest, primary screen (AID 1117319) | TR-FRET GST-Vif / biotin-A3G peptide binding; higher % means a stronger effect; test concentration not given here; strong numbers were not always called active | inhibition, %, or IC50 in µM where a hit was titrated | hit rate 0.57% among 260,000;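 active = above the screen mean plus three standard deviations and confirmed in dose response; inconclusive = results disagree or hit not tested in dose response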;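 note: Vif residues 1-94 fused to GST binding biotinylated APOBEC3G peptide 110-148; 0% = full assay without inhibitor and 100% = GST in place of GST-Vif; retest series ran down from 100 µM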
ALR H2O2 inh: blocks human ALR sulfhydryl oxidase activity | P55789 | purified ALR, DTT oxidation, H2O2 HRP-luminol luminescence | inhibition, % (no concentration beside the values) | hit rate 3.8% among 290,000 | AID 485317;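 active = mean and each replicate at 75% or more; inconclusive = only one of the two met; inactive = neither met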;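 note: stock transfer was 7.5 nL into about 7.5 µL; 0% = neutral wells and 100% = wells with inactivated enzyme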
Target sequence (P55789 whole entry, looked up): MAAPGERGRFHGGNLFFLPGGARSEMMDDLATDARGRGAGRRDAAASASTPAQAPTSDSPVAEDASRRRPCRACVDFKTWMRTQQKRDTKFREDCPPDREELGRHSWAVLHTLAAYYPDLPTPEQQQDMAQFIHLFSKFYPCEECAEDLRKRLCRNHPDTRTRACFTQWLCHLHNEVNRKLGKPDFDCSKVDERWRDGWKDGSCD
HNF4A DNA FP: change in binding of human HNF4 alpha to DNA. P41235. HNF4a-FITC DNA binding, fluorescence polarization, 1 h. activity change, % at 10 µM. hit rate 0.3% among 360,000; in the data active = activity change above about 30%, passing the limit was not always enough;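 note: controls were the assay level and a saturating level of protein; the project sought stronger binding though the title names inhibitors; some compounds called inactive have numbers as strong as hits; positive values seem to mean higher polarization but the record does not say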
Target sequence (P41235 whole entry, looked up): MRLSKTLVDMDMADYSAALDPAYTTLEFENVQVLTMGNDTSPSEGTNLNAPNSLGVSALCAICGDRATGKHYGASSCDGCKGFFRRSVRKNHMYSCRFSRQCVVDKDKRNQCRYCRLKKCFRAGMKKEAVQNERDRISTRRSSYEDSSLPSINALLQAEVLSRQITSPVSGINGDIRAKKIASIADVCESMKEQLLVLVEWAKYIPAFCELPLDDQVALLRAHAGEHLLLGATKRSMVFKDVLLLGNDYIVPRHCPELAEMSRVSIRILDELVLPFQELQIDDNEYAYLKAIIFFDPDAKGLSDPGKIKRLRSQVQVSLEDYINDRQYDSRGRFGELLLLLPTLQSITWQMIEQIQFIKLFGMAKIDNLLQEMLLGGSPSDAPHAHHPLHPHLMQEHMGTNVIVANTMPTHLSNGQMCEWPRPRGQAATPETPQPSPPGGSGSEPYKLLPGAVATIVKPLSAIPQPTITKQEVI
Beta2AR agonist: activates human beta-2 adrenergic receptor causing internalization | P07550 | Am2.2-beta2AR cells, FAP receptor internalization, flow cytometry; reference of the scale not given here | response, % (concentration not given with the values) | hit rate 0.43% among 340,000;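 active = response above a set limit, near 3 SD of response in nonfluorescent compounds, cut at about 42% in these data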;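 note: stock transfer was 100 nL into about 11 µL; a reference agonist was the positive control; negative values mostly stem from fluorescent compounds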
Target sequence (P07550 whole entry, looked up): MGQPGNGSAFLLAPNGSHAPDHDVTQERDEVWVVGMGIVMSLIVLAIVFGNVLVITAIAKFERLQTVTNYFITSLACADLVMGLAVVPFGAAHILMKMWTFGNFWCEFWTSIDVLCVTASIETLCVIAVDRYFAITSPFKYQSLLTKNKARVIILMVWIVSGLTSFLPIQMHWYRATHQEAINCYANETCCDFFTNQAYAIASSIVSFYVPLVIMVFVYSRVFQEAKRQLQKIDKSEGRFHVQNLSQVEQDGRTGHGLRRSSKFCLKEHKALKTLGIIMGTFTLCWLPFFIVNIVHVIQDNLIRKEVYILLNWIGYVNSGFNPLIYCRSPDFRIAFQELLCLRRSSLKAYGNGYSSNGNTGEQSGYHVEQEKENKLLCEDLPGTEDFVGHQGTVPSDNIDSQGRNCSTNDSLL
RanGTP-Imp inh: inhibitors of RanGTP-importin-beta interaction, primary screen, biochemical, FRET, CFP-Ran, YFP-importin-beta, homogeneous; cell-free CFP-Ran/YFP-importin-beta FRET ratio; inhibition, % (test concentration not listed); hit rate 1.1% among 300,000;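 active = most replicates above 15%; inconclusive = exactly half above 15%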;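 note: 0% = DMSO wells and 100% = Ran loaded with GDP instead of GTP; wells of about 40 µL received 100 nL stock; the first replicate is given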
Calb FLC: C. albicans growth modulation with fluconazole; growth inhibition, % (concentration not given with the values); C. albicans CaCi-2 (fluconazole-resistant clinical isolate) + fluconazole, Alamar Blue growth, 48 h; hit rate 0.57% among 300,000;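 active = most replicates above 75%; inconclusive = exactly half above 75%; inactive = most below 75%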;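 note: all wells also contain fluconazole at 8 µg/ml as a sub-toxic cotreatment; 0% = median of DMSO wells and 100% = median of geldanamycin control wells; wells of about 8 µL received 7.5 nL stock; the first replicate is given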
LANA-H2B inh: blocks KSHV LANA binding to histone H2A/H2B. cell-free LANA-H2A/H2B peptide, fluorescence polarization. inhibition, % (no concentration beside the values). hit rate 0.6% among 320,000. AID 2629; in the data active = inhibition mostly above about 10%, no sharp cut-off; inactive = mostly below about 6.7%;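 note: stock transfer was 7.5 nL into about 10 µL; 0% = median of vehicle wells and 100% = median of positive control wells; one replicate is shown; the record names a cut of 25% in any replicate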
Active calls of the source: *; ? = inconclusive; / = not tested or not shown; & = joins results of further samples.

SMILES	Vif A3G	ALR H2O2 inh	HNF4A DNA FP	Beta2AR agonist	RanGTP-Imp inh	Calb FLC	LANA-H2B inh
CC(NCCC1(Cc2ccccc2Cl)CCOC(C)(C)C1)c1cccs1 (centres undefined)	21%	-23	4.3	7	3.0	-2	-1.9
Cc1ccc(C(=O)N2CCN(c3ccc(N4CCOCC4)nn3)CC2)cc1	0%	/	2.4	-4	-0.1	4	1.1
CCCOc1ccc(C2=CSC3=NCCN23)cc1[N+](=O)[O-]	5%	63	-0.7	-19	-3.1	-7	1.6
C=CCC(NCc1ccco1)c1ccc(OC)cc1OC (centres undefined)	4%	-6	/	/	-1.5	16	-4.1
COc1ccc(CNC(=O)COc2ccc(OC)cc2)cc1	-3%	1	-2.5	20	4.6	4	-4.0
CCN(CC(=O)N1CCC(C(N)=O)CC1)S(=O)(=O)c1ccc(Cl)cc1	/	1	2.9	-4	5.9	4	3.6
O=C(CCS(=O)(=O)c1cccc2nonc12)Nc1cccc2c1CCCC2	2%	/	1.5	-3	-0.6	2	3.2
CC(=O)c1ccc(OCC(=O)Nc2ccc3c(c2)CCC3)cc1	-10%	/	6.0	-3	-0.5	15	-3.5
Cc1ccc2nc(SCC(=O)NCc3ccc4c(c3)OCO4)nc(=O)n2c1	1%	1	-0.8	-3	-0.9	-4	2.2
Cc1ccc(C(C)C)c(OCCCN(C)Cc2ccccc2)c1	-11%	/	-1.1	6	0.0	-2	-0.4
CCOc1ccc(/C=C/C(O)=C2/C(=O)N(C)C3(C)CC2c2ccccc2O3)cc1OC (centres undefined)	/	/	-1.4	13	3.7	-1	4.5
N=C(N)SCc1nc2ccccc2c(=O)n1-c1ccccc1	/	98*	16&17	3&5	5.0	17	-2.3&-1.0
CNC(=O)C(C)N1c2cccc3cccc(c23)S1(=O)=O (centres undefined)	/	-15	-1.0	3	-3.5	0	2.2
Cc1ccccc1N1CCN(C2CCCN(C(=O)CCC3(C)CC3)C2)CC1 (centres undefined)	13%	13	-1.3	-2	3.9	-2	2.1
O=C(NC1CCCCC1)c1cc2c(cc1Cl)N1CCCCCC1=NS2(=O)=O	6%	/	0.2	3	/	/	/
CCCn1c(SCC(=O)NC(=O)NC(C)(C)C)n[nH]c1=O	/	-2	4.7	8	-3.1	-6	-4.8
C=CCn1c(-c2cccc([N+](=O)[O-])c2)n[nH]c1=S	7%	96*	-1.6	-3	-0.9	9	-4.2
O=[N+]([O-])c1cccc(-c2ccc(/C=N/NC(=S)Nc3cccc(F)c3)o2)c1	2%	-2	-0.3	11	-1.9	3	3.9
CCn1c(Cc2ccc(OC)cc2)nnc1SCC(=O)NC1CC1	/	-6	0.2	-2	3.3	-3	4.1
CCOc1ccc(N2CC(C(=O)NCCN3C(=O)S/C(=C\c4ccc(OC)c(OC)c4)C3=O)CC2=O)cc1 (centres undefined)	29%	-20	1.2	4	4.6	-7	-3.8
O=C(COc1cccnc1[N+](=O)[O-])NC1CCS(=O)(=O)C1 (centres undefined)	-1%	-12	-0.3	-4	0.9	-8	-2.7
Cc1cc2c(C)c(C)c(=O)[nH]c2cc1N	16%	55	2.9	-4	3.6	7	2.9
CN1C(=O)C(O)(C2COC(C)(C)CC2=O)c2ccccc21 (centres undefined)	0%	-3	0.0	-7	-2.4	-33	-5.0
COc1ccc(C2CC(c3cccc(F)c3)=NN2c2ccc(S(N)(=O)=O)cc2)cc1 (centres undefined)	-3%	/	-2.5	-12	/	/	/
CCCCOc1ccc(C(=O)N/C(=C/C=C/c2ccccc2)C(=O)N2CCOCC2)cc1	-3%	-3	-3.0	-10	-2.3	51	1.4
COc1ccc(Br)cc1CN(C)CC(=O)Nc1cc(Cl)cc(Cl)c1	4%	/	2.2	-2	?	-30	/
N#CCCN(Cc1cccs1)C(=O)c1ccc(Cl)cc1	-6%	-15	2.8	-3	1.1	0	-6.5
Cc1cc(=O)oc2ccc(OC(=O)CN3C(=O)c4cccc([N+](=O)[O-])c4C3=O)cc12	10%	-5	1.1	/	-4.3	-20	-0.5
COCCCNC(=O)/C(C#N)=C/c1c(N2CCN(c3ccc(OC)cc3)CC2)nc2c(C)cccn2c1=O	7%	4	1.4	-6	?	-7	-3.7
COc1cc(OC)cc(C(=O)OC(C)C(=O)NC2CCCc3ccccc32)c1 (centres undefined)	-8%	/	-1.0	-3	/	/	/
COc1cc(/C=N/NC(=O)c2ccncc2)ccc1O	/	99*	-3.2&-1.4	6&13	1.9&-1.7	/	-4.7&-7.9
O=C(NNC1=NCCC1)c1cccc(S(=O)(=O)N2CCOCC2)c1	/	1	7.3	2	2.8	-5	-2.4
CCn1c(O)c(/C=C2\C=NN=C2c2ccc(C)cc2)sc1=S	-9%	-2	3.4	0	-2.2	7	2.3
COc1ccc(-c2[nH]ncc2/C=N/NC(=O)c2ccc(Br)cc2)c(OC)c1	/	-1	-1.5	17	-1.1	16	1.4
CCCCN(CC)S(=O)(=O)N1CCC(C(=O)NCCCN2CCOCC2)CC1	?	-1	-2.8	2	-2.8	-10	-2.6
Cc1ccc(OC(=O)c2ccncc2)c(C)c1	/	-5	-0.6	3	6.7	4	-0.8
Cc1c(C)c2ccc(OCC(=O)Nc3cccnc3)c(C)c2oc1=O	/	-7	1.1	3	?	5	-3.9
CC(C)C(NC(=O)OCc1ccccc1)C(=O)O (centres undefined)	-5%	-2	-7.4	-7	-0.8	-4	-2.1
CN1CCN(CCCNC(=O)CCCOc2cc(=O)n(C)c3ccccc23)CC1	4%	-2	5.6	1	?	-1	-4.5
CCC(=O)OCc1c(C(F)(F)F)nn(C)c1Sc1ccc(Cl)cc1	?	1	6.1	0	4.9	9	-1.4

Retrieved by compound from the list above (2):
SMILES	Vif A3G	ALR H2O2 inh	HNF4A DNA FP	Beta2AR agonist	RanGTP-Imp inh	Calb FLC	LANA-H2B inh
COc1cc(OC)cc(C(=O)OC(C)C(=O)NC2CCCc3ccccc32)c1 (centres undefined)	-8%	/	-1.0	-3	/	/	/
COc1ccc(C2CC(c3cccc(F)c3)=NN2c2ccc(S(N)(=O)=O)cc2)cc1 (centres undefined)	-3%	/	-2.5	-12	/	/	/

Further results.
SMILES	Vif A3G	ALR H2O2 inh	HNF4A DNA FP	Beta2AR agonist	RanGTP-Imp inh	Calb FLC	LANA-H2B inh
COCCCn1c(=O)c2ccccc2n(Cc2cc(C(=O)OC)ccc2OC)c1=O	-9%	-4	3.2	-3	-0.3	1	-0.6
N#CC1(NC(=O)COC(=O)CCN=C2NS(=O)(=O)c3ccccc32)CCCCC1	/	-2	0.7	0	-0.2	0	-3.8
O=C(c1cc(COc2ccc(F)cc2Cl)on1)N1C[C@H]2CC[C@H]1C2	2%	-4	-1.3	-10	-0.1	-14	0.5
CCN1C(=O)c2ccc(C(=O)Nc3ccc4c(c3)OCO4)cc2C1=O	/	-5	3.7	-7	-1.6	-6	3.7
CC1=CCCC(C)(C)C1/C=C/C(C)=N/NC(=O)c1ccncc1 (centres undefined)	1%	17	-1.5	2	3.4	-5	4.0
O=C(CN1CCCCC1)NN(Cc1ccccc1)c1ccccc1	3%	15	-1.8	2	1.4	-11	-2.1
CC(C)N(CCCNC(=O)c1ccc(N2CCCC2=O)cc1)Cc1ccccc1	7%	-4	-0.1	-93	6.3	7	5.4
COc1ccc(CCNC(=O)Cn2c(-c3nonc3N)nc3ccccc32)cc1OC	-4%	6	4.4	12	5.0	-3	-2.1
CCN(CC(=O)Nc1cccc(S(N)(=O)=O)c1)Cc1nc2ccccc2c(=O)[nH]1	7%	0	-0.4	-5	-3.9	7	2.0
O=C(Cc1c(F)cccc1Cl)Nc1cc(S(=O)(=O)N2CCCCC2)ccc1N1CCOCC1	-10%	-10	0.8	4	-1.9	-17	1.0
CCC(=O)N1CCc2cc(S(=O)(=O)N3CCCC3)ccc21	/	-2	-0.6	-8	-6.7	-7	-0.1
O=C(O)/C=C/C(=O)Nc1ccc(Oc2ccccc2)cc1	2%	51	1.9	3	2.6	9	-0.9
Oc1ccc(-c2csc(Nc3ccccn3)n2)cc1	-1%	71	3.2	-10	-1.8	-13	1.9
CCOc1ccccc1CNC(=O)c1nn(C)c2c1CS(=O)(=O)c1ccccc1-2	9%	-3	-0.9	10	1.7	4	2.4
CCC(=O)Nn1cnc2c(c1=O)C1(CCCCC1)Cc1ccccc1-2	-11%	-15	0.4	-8	0.9	-11	-0.9
CCn1c2ccccc2c2nnc(SCC(=O)Nc3ncccn3)nc21	-6%	-1	-6.2	-7	-4.6	-3	-6.1
Cc1cccc(OCCn2c(=O)oc3ccc(C)cc32)c1	11%	-6	4.3	7	1.6	-3	-1.4
S=c1[nH]ccn1-c1ccccc1Cl	-8%&-12%	/	4.6	-5	-1.7	3	2.4
O=C(Nc1ccc(Cl)cc1)c1cc(Br)ccc1OCC(=O)N1CCOCC1	/	2	-5.1	-1	-0.4	-4	1.6
CC1CC(C)CN(C(=O)C2CCN(C(=O)Nc3ccccc3)CC2)C1 (centres undefined)	/	-35	1.1	2	0.5	-1	2.2
Cc1c(NC(=O)CSc2ccc(Cl)cc2)c(=O)n(-c2ccccc2)n1C	/	3	-1.9	-20	6.8	-18	3.1
COc1ccc(F)cc1CN1CCN(c2ncnc3scc(-c4ccccc4)c23)CC1	-1%	-17	-2.3	0	3.0	24	-7.6
COc1ccc(NC2=CC(c3ccc(F)cc3)N(c3ccc(OC)cc3)C2=O)cc1 (centres undefined)	14%	-2	-2.4	1	4.0	22	0.6
COc1ccc(CCNC(=O)c2ccccc2NC(=O)c2ccco2)cc1OC	0%	-20	-1.2	2	7.3	0	0.1
CCn1cc(S(=O)(=O)c2ccc(C)cc2)c(=O)c2cc(F)c(N3CCN(C)CC3)cc21	/	-6	-0.1	7	2.4	-9	3.3
O=C(C1=NN[C@@H]2C(=O)N(c3cccc(C(F)(F)F)c3)C(=O)[C@H]12)c1cnccn1	-2%	15	0.0	5	1.5	-2	0.4
Oc1c(Br)cc(Br)cc1CNc1ccccn1	/	98*	1.0	-5	-2.9	20	-6.0
O=C(CN(c1ccc(Cl)cc1)S(=O)(=O)c1ccccc1)N/N=C/c1ccco1	3%	9	-0.4	-6	1.0	1	-3.5
O=C(NNC(=O)c1cccc(C(F)(F)F)c1)c1ccc(-n2cnnn2)cc1	-8%	/	-1.1	-1	/	/	0.3
O=C(/C=C/c1ccccc1)NC(=S)NNC(=O)c1cccnc1	14%	?	-4.0	6	0.6	-3	1.5
Cc1nc(NCCc2ccc(Cl)cc2)c2nnn(Cc3ccccc3)c2n1	/	0	2.2	-9	0.6	3	-1.9
O=C(NCCc1ccccc1F)C1CCC(=O)N(Cc2ccc(Cl)cc2)C1 (centres undefined)	4%	-15	-0.3	5	1.7	-4	/
CC(C)c1ccc(N(C(=O)c2csnn2)C(C(=O)NC2CCCC2)c2ccncc2)cc1 (centres undefined)	/	40	3.4	-1	-0.4	24	-5.6
CCC(=O)Nc1nnc(-c2ccccn2)o1	/	-2	-1.0	-5	2.8	-3	1.8
CN(C(=O)CN1C(=O)S/C(=C\c2cccc(Cl)c2)C1=O)C1CCS(=O)(=O)C1 (centres undefined)	5%	-14	-2.8	-10	0.5	21	-4.9
COc1ccc(-c2csc3ncnc(Cl)c23)cc1	-129%	-2	0.9	3	-4.2	27	1.2
Cc1cc(Cl)ccc1OC(C)C(=O)NCCCCc1ccccc1 (centres undefined)	4%	-8	-2.1	12	3.8	2	4.9
COc1cc(CC(=O)N2CCc3ccccc32)cc(OC)c1OC	-4%	-6	-4.4	-12	-4.0	4	2.6
Cc1ccc(-c2c(C#N)c(N)nc3c2CCCCC3)o1	21%	0	3.1	11	5.7	6	-2.1
CCOc1ccc2nc(NC3=NC(C)(C)C=C(C)N3)nc(C)c2c1	-10%	-7	4.2	3	8.3	-12	-0.1
N=C1C(c2ccccc2)=C(O)C2CCc3ccccc3N12 (centres undefined)	?	18	1.2	0	4.1	-10	-3.0
